Arbovirus anti: arbovirus infection inhibition; arbovirus infection cell-based antiviral screen; inhibition, % at 10 µM; 0.37% of 200,000 active;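 active means inhibition from about 30%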;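 further: bluetongue infection of BSR cells; cell survival read as ATP light after 72 h; 0% = infected wells without compound and 100% = uninfected wells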
YopH inh: blocks Yersinia enterocolitica YopH tyrosine phosphatase. inhibition, %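 (about 10 µM by stock and volumes)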. 0.16% of 140,000 active. fluorescence Ex485/Em525;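 active means inhibition of 50% or more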;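 further: controls were vehicle for no effect and minimum signal wells for full effect; inactives centre near -20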
Mtb growth: M. tuberculosis H37Rv growth inhibitors, H37Rv strain (AID 1626). 0.95% of 220,000 active. M. tuberculosis H37Rv growth inhibition; higher % means a stronger effect. inhibition, % at 10 µM; hits with a dose series show IC50 in µM;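 active means confirmed in a dose series; inconclusive means inhibition above 80% but not taken into the dose series; inactive means below 80% or under 30% at every dose of the series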;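 further: bacteria incubated seven days before Alamar blue readout; 0% = bacteria only wells and 100% = bacteria with antibiotic wells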
RecA splice inh: Mtb RecA intein splicing inhibition | P9WHJ3 | 0.75% of 290,000 active | cell-free RecA intein splicing, fluorescence | inhibition, %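 (about 9 µM by stock and volumes)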; in the data active means inhibition above about 30%; inconclusive means no clear call, values can overlap the other calls;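 further: 0% = vehicle wells and 100% = reference inhibitor control wells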
Target sequence (P9WHJ3 whole entry, looked up, canonical isoform): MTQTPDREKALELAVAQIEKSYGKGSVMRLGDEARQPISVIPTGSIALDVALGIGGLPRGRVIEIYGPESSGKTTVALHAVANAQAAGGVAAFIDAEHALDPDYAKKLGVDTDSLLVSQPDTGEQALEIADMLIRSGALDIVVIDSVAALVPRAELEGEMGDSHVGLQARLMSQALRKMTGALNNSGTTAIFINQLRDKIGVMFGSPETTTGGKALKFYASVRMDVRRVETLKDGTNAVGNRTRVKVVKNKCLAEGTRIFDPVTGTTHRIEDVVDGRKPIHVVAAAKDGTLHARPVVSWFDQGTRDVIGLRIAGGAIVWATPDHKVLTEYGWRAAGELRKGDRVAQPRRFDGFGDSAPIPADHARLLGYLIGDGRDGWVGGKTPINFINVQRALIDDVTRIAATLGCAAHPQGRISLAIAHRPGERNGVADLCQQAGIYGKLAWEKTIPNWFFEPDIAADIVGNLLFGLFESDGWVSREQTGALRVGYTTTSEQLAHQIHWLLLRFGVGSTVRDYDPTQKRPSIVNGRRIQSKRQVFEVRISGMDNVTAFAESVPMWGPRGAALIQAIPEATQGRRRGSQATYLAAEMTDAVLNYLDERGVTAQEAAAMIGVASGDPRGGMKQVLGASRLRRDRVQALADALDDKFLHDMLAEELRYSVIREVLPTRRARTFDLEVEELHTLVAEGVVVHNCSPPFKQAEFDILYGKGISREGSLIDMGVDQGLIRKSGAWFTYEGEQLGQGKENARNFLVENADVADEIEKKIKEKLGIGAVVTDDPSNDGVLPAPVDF
Mtb bLac sens: beta-lactam sensitization of Mtb H37Rv. 0.27% of 330,000 active. M. tuberculosis H37Rv growth with meropenem, percent inhibition; hits of this screen are not shown here. inhibition, % at 25 µM;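 active means about 74% or more and at least 40 points above the plate without the antibiotic, then above 30% in a dose series; inconclusive means first-round hits that could not be retested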;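 further: growth measured after seven days incubation then overnight dye step; 0% = bacteria only wells and 100% = bacteria with antibiotic; twin plates without the antibiotic show which effects depend on it; some results filed as inactive read as strong as hits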
Arbovirus anti repeat: further read-out of Arbovirus anti, marked with its call; inhibition, %; measured here: 10K subset replicate screen; many hits read low in the repeat;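 first of two repeat runs on a subset; 0% = infected and 100% = uninfected wells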
* hit, by the source's call; u = inconclusive; x = not tested or not shown; & = joins results of further samples. This is a subset, so the mix of outcomes need not match the whole.

SMILES	Arbovirus anti	YopH inh	Mtb growth	RecA splice inh	Mtb bLac sens	others
C/C(COc1ccccc1)=N\NC(=O)c1nnn(-c2nonc2N)c1CSc1ccccc1	x	x	x	-2.4	8
COc1ccc(C(=O)Cn2c(NCCO)nc3ccccc32)cc1	-2	x	5%	2.3	-3
CC12CN3CCN(CC(C3)/C1=N/NC(=O)Nc1ccccc1)C2	-2	8	-1%	-0.1	7
CC(=O)Nc1ccc(NC(=O)C(C)OC(=O)CCCOc2ccc(Cl)cc2C)cc1 (stereo not given)	x	x	x	-0.3	-4
Cc1ccccc1NCC(=O)N/N=C/C(Br)=C/c1ccccc1	-18	-2	1%	0.0	0
CN(C)C1(CNC(=O)C2CCC(=O)N(Cc3ccc(Cl)cc3)C2)CCCCC1 (stereo not given)	x	x	x	-10	-5
O=[N+]([O-])C(=C1Nc2ccccc2N1)C(Cl)=C(Cl)Cl	-1	x	1%	1.7	-5
O=C(O)[C@]1(S(=O)(=O)c2ccccc2)C[C@@H]2ON=C(c3cccc(Br)c3)[C@@H]2C1	x	x	x	-66	-2
COc1cccc(CC2(CO)CCCN(Cc3cc4ccccc4[nH]3)C2)c1 (stereo not given)	-3	x	10%	1.5	2
COc1ccc(NC(=S)N2CCc3ccccc32)cc1OC	x	x	x	2.8	-8
O=C(OCC#CCSc1nc2ccccc2s1)c1ccco1	-2	-17	74%	13	98
O=C(Nc1cc(Cl)ccc1-n1cncn1)c1cn2ccccc2n1	x	x	x	-3.0	0
Cc1cc(OC(C)C(=O)Nc2cccnc2)ccc1Cl (stereo not given)	x	x	x	0.7	-9
Cn1c(=O)c2c(nc(NCc3ccccc3)n2CC(=O)NCc2ccccc2)n(C)c1=O	3	-33	2%	0.6	2
COc1cc(C2NC(=O)NC(C)=C2C(C)=O)cc(OC)c1OC (stereo not given)	1	x	-1%	-1.0	2
CCCSCCCNC(=O)c1ccc(NC(=O)C2=CSCCO2)cc1	x	x	x	-7.2	36
Cc1cccc(C(=O)NC2CCN(C(=O)N3CCOCC3)CC2)c1	-1	5	-2%	-0.4	0
CCN(CC)c1ccc(CN2CCC(C(=O)NCc3ccc(C)cc3)CC2)cc1	-26	x	5%	-3.1	0
CC(C)CC1C(C#N)=C(N)Oc2n[nH]c(-c3ccccc3)c21 (stereo not given)	-3	-16	4%	82*	17
O=C1C2CCCN2C(c2ccccc2F)N1c1ccc(F)cc1 (stereo not given)	3	-34	-17%	-2.3	-12
O=C(c1cccc2ccccc12)C1CCCN(C(=O)CCc2cnccn2)C1 (stereo not given)	9	x	-2%	-0.6	0
O=C(O)CSc1nnc(-c2ccc(Cl)cc2Cl)n1Cc1ccccc1	x	x	x	-3.2	-13
Cc1cc(Cl)ccc1N(CC(=O)NCCSCc1ccco1)S(C)(=O)=O	-1	x	-3%	5.0	-8
CCc1ccn2cc(-c3cc(-c4ccccc4)no3)nc2c1	x	x	-2%	0.0	57
C=CCN1C(=O)N(CC=C)c2cccc3cccc1c23	x	x	x	1.0	2
CCNc1nc(NCC)nc(SCCOC(=O)Nc2ccccc2)n1	27	-11	67%	2.3	-2
CCOC(=O)c1ccccc1NC(=O)c1cc2sccc2n1C	0	-27	1%	-1.6	20
Cc1ccc(-c2nn(-c3cccc(F)c3)cc2CNCc2cccnc2)o1	-8	x	13%	-6.3	24
O=C(O)CN1CCNCC1	2	-31	-2%	x	x
COc1ccc(OCCNC(=O)CSc2ccc(C(F)(F)F)cc2[N+](=O)[O-])cc1	-6	6	6%	-8.6	0
O=P(O)(O)Cc1c(Cl)cccc1Cl	-2	-2	-2%	x	4
Cc1c(CCOC(=O)c2cc([N+](=O)[O-])cc([N+](=O)[O-])c2)sc[n+]1CC(=O)c1ccc(Br)cc1	1	x	u	14	99
COC(=O)c1ccc(Oc2nc(N3CCCCC3)nc(N3CCOCC3)n2)cc1	4	-35	8%	-4.9	99
CC(=O)c1cccc(NC(=O)CSc2nnc(-c3cccnc3)o2)c1	6	-8	-6%	-1.0	1
COCCNC(=S)Nc1cc(OC)c(OC)cc1C#N	-2	x	10%	1.6	x
O=C(CCN1C(=O)c2ccccc2C1=O)N1CCN(C(=O)c2ccccc2)CC1	3	-16	-11%	-1.0	-14
COc1ccccc1NC(=O)CCS(=O)(=O)c1ccccc1	5	x	-5%	-4.3	3
O=C(CCc1nnc(-c2ccc3c(c2)OCO3)o1)NCCc1ccccc1F	x	x	x	1.9	4
O=C(Nc1nccs1)C(Br)C(Br)c1ccccc1 (stereo not given)	x	x	x	3.1	-9
CC(Cc1ccccc1)C(=O)Nc1ccccc1 (stereo not given)	5	-13	11%	-0.1	1
CCn1c(SCC(=O)N(C(C)C)C(C)C)nnc1-c1cc2ccccc2cc1O	-4	-20	-6%	0.1	0
Cn1cc(C(c2ccccc2OCC(=O)O)c2cn(C)c3ccccc23)c2ccccc21	x	x	x	11	-6
Cc1cccc2cc(CN(CC3CCCO3)C(=O)c3ccco3)c3nnnn3c12 (stereo not given)	5	x	-4%	0.4	-11
CCOc1ccc(CCNC(=O)COC(=O)c2ccccc2O)cc1OCC	1	x	-3%	-3.2	-5
COc1cccc(CNC(=O)Cn2ccc3cc(S(=O)(=O)N4CCCCCC4)ccc32)c1OC	x	x	x	1.6	8
COc1ccc(C)cc1NC(=O)C(Sc1nnc(Nc2cc(C)ccc2OC)s1)c1ccccc1 (stereo not given)	4	-2	11%	5.3	8
CNC(=O)COC(=O)c1cc(=O)[nH]c2ccccc12	1	-37	-1%	-1.7	-9
CSc1ncc(Cl)c(C(=O)C(C#N)c2nc3c(C)cc(C)cc3c(=O)[nH]2)n1 (stereo not given)	41*	-16	-11%	1.7	5
Cc1ccc(CNC(=O)CN(c2ccc(Cl)cc2)S(C)(=O)=O)cc1	x	x	x	4.5	0
CCn1cc(C(=O)Nc2ccc(C)cc2[N+](=O)[O-])c(C)n1	x	x	x	-0.6	-12
Cc1ccc(S(=O)(=O)Nc2ccc(O)c(S(=O)(=O)c3ccc(C)cc3)c2)cc1	x	x	x	-5.2	-6
CN(C)CCCN(C(=O)COc1ccccc1)c1nc2c(F)cccc2s1	2	x	11%	0.3	-7
O=C(CCc1ccccc1)Nc1ccc(S(=O)(=O)Nc2nccs2)cc1	x	x	x	3.0	58
O=S(=O)(c1ccc(Cl)cc1)c1snnc1-c1ccccc1	-45	-31	-9%	81*	99
Cc1ccc(-c2nc(CS(=O)CC(=O)NCc3ccc(Cl)cc3)c(C)o2)cc1 (stereo not given)	-1	x	4%	1.2	4	Arbovirus anti repeat=0
Cc1nc(CNC(=O)c2cc(COc3c(F)cccc3F)on2)cs1	x	x	-1%	-1.7	-7
CCOc1ccc(S(=O)(=O)N2CCC(C(=O)N3CCCC3)CC2)cc1C	x	x	x	0.8	-7
O=C(NNC1OC(CO)C(O)C(O)C1O)c1cccnc1 (stereo not given)	1	x	-4%	8.4	-4
N/C(=N\OC(=O)CCCc1ccccc1)c1ccccc1	x	x	x	2.6	4
O=C(c1cccnc1)N1CCN(C(=O)c2cccs2)CC1	1	4	-14%	0.1	-10

Further records
SMILES	Arbovirus anti	YopH inh	Mtb growth	RecA splice inh	Mtb bLac sens	others
CC(C)Oc1ccc(N2CC(C(=O)Nc3ccccc3F)CC2=O)cc1 (stereo not given)	-2	-31	11%	2.5	x
Cn1c(SCC(=O)c2cc3ccccc3o2)nnc1-c1ccccc1	3	-30	0%	-0.7	0	Arbovirus anti repeat=-3
COc1ccc(CC(=O)NCC(=O)N/N=C(/C)c2ccco2)cc1	6	x	3%	-0.4	-6
Cc1ccc(N2CC(C(=O)Nc3ccccc3N3CCCC3)CC2=O)cc1 (stereo not given)	x	x	x	-0.6	-4
Cc1cnc(C(=O)OCC(=O)N(C(C)C)C(C)C)cn1	11	16	0%	1.4	-13
Cc1ccc(NC(=O)C2CCCN2S(=O)(=O)c2ccc3c(c2)n(C)c(=O)c(=O)n3C)cc1C (stereo not given)	2	-34	x	-1.0	4
COc1cccc(OCc2nc3ncc(Br)cc3[nH]2)c1	-28	-42	-3%	-2.2	0
COc1ccc(-n2c(=S)[nH]c3cc(C(=O)NCc4ccco4)ccc3c2=O)cc1OC	2&3	-34	5%&7%	-2.3	-1
CCCCCCCn1c(NC(=O)CC)nc2ccccc21	x	x	<0.2µM*	9.1	98
O=C(O)c1ccc(Nc2nc(-c3ccccc3)c3ccccc3n2)cc1	13	x	14%	x	5
Cc1ccc(S(=O)(=O)NCC(c2ccccc2)N2CCCCC2)cc1 (stereo not given)	x	x	-8%	0.9	1
Cc1cccc(OCCC(=O)Nc2ccccc2C(N)=O)c1	x	x	x	-2.5	0
CCCCN(CC)CCNc1c(NC2CCN(C(=O)OCC)CC2)c(=O)c1=O	5	-24	-10%	1.0	-9	Arbovirus anti repeat=2
CCCCCCCCCCCC(=O)N1CC(=O)NC(=O)C1	x	x	4%	1.2	-2
CCSc1ccccc1C(=O)Nc1nncs1	6	-26	-10%	-1.3	3
CCOc1ccc(C2C(C#N)=C(C)NC3=C2C(=O)c2ccccc23)cc1 (stereo not given)	-5	-13	-1%	-0.9	9
c1ccc2c(CNC3CCCCC3)c[nH]c2c1	-45	-15	-7%	-0.2	-11
Cc1ccccc1OCC(O)Cn1c(NCc2ccco2)nc2c1c(=O)n(C)c(=O)n2C (stereo not given)	9	-22	-1%	x	3
O=[N+]([O-])c1cc([N+](=O)[O-])c(Oc2ccc(F)cc2F)cc1NN1CCCCC1	x	x	x	0.8	7
Cc1onc(-c2ccccc2)c1C(=O)NCCc1ccc(S(N)(=O)=O)cc1	0	-29	-6%	0.3	7
C=CCn1c(-c2cccn(Cc3ccc(Cl)cc3Cl)c2=O)n[nH]c1=S	5	-29	4%	-1.4	-8
C=CCNC(=O)CSc1nc2cc(C(=O)OCC)ccc2n1CC	1	-11	-4%	-0.8	10
COc1ccc(NC(=O)c2c(Nc3ccccc3)sc(C(=O)c3ccc(F)cc3)c2N)cc1	18	-4	x	-6.5	8
Cc1ccc(NC(=S)N(Cc2ccccc2)Cc2cccs2)c(C)c1	13	x	-4%	-15	0
Fc1ccccc1N1CCN(C2CCCN(Cc3ccccc3C(F)(F)F)C2)CC1 (stereo not given)	x	x	x	-2.0	2
COc1ccc(C(=O)c2c[nH]c(C(=O)NCc3ccco3)c2)cc1	8	-31	x	0.1	26
COc1ccc2[nH]cc(CCNC(=O)c3ccccc3Cl)c2c1	x	x	x	-0.1	2
COc1ccc(-c2[nH]ncc2-c2cscn2)c(O)c1	6	x	0%	-2.1	-1
COc1ccc(NC(=O)CCc2nnc3ccc(N4CCN(c5cccc(OC)c5)CC4)nn23)cc1	x	x	x	-2.8	0
CCn1c(=O)cc(OCC(=O)NCCCN2CCC(C)CC2)c2ccccc21	-13	-11	5%	0.9	0

Filtered by structure, the compounds so far with a Cl atom.
SMILES	Arbovirus anti	YopH inh	Mtb growth	RecA splice inh	Mtb bLac sens	others
CC(=O)Nc1ccc(NC(=O)C(C)OC(=O)CCCOc2ccc(Cl)cc2C)cc1 (stereo not given)	x	x	x	-0.3	-4
CN(C)C1(CNC(=O)C2CCC(=O)N(Cc3ccc(Cl)cc3)C2)CCCCC1 (stereo not given)	x	x	x	-10	-5
O=[N+]([O-])C(=C1Nc2ccccc2N1)C(Cl)=C(Cl)Cl	-1	x	1%	1.7	-5
O=C(Nc1cc(Cl)ccc1-n1cncn1)c1cn2ccccc2n1	x	x	x	-3.0	0
Cc1cc(OC(C)C(=O)Nc2cccnc2)ccc1Cl (stereo not given)	x	x	x	0.7	-9
O=C(O)CSc1nnc(-c2ccc(Cl)cc2Cl)n1Cc1ccccc1	x	x	x	-3.2	-13
Cc1cc(Cl)ccc1N(CC(=O)NCCSCc1ccco1)S(C)(=O)=O	-1	x	-3%	5.0	-8
O=P(O)(O)Cc1c(Cl)cccc1Cl	-2	-2	-2%	x	4
CSc1ncc(Cl)c(C(=O)C(C#N)c2nc3c(C)cc(C)cc3c(=O)[nH]2)n1 (stereo not given)	41*	-16	-11%	1.7	5
Cc1ccc(CNC(=O)CN(c2ccc(Cl)cc2)S(C)(=O)=O)cc1	x	x	x	4.5	0
O=S(=O)(c1ccc(Cl)cc1)c1snnc1-c1ccccc1	-45	-31	-9%	81*	99
Cc1ccc(-c2nc(CS(=O)CC(=O)NCc3ccc(Cl)cc3)c(C)o2)cc1 (stereo not given)	-1	x	4%	1.2	4	Arbovirus anti repeat=0
C=CCn1c(-c2cccn(Cc3ccc(Cl)cc3Cl)c2=O)n[nH]c1=S	5	-29	4%	-1.4	-8
COc1ccc2[nH]cc(CCNC(=O)c3ccccc3Cl)c2c1	x	x	x	-0.1	2
